NPR1 antag – antagonists of human natriuretic peptide receptor Npr1; HEK293 hNpr1 GloSensor cGMP, ANP-stimulated luminescence; AID 1347048; actives 1.6% (n = 76,000); Potency, µM (doses to about 46.3 µM), without a hit: at the highest dose activity change, negative = inhibition, usual class: inhibitors; P16066; active = well fitted inhibition curve with a large enough effect; inconclusive = small, poorly fitted or top-dose-only effect; inactive = no such curve, though single readings can be large or run the other way;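 note: nearly all actives have a fitted effect of over 60% in size; nearly all hits also lower the signal before the agonist is added; a reference antagonist and vehicle were the controls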
Target sequence (P16066 whole entry, looked up): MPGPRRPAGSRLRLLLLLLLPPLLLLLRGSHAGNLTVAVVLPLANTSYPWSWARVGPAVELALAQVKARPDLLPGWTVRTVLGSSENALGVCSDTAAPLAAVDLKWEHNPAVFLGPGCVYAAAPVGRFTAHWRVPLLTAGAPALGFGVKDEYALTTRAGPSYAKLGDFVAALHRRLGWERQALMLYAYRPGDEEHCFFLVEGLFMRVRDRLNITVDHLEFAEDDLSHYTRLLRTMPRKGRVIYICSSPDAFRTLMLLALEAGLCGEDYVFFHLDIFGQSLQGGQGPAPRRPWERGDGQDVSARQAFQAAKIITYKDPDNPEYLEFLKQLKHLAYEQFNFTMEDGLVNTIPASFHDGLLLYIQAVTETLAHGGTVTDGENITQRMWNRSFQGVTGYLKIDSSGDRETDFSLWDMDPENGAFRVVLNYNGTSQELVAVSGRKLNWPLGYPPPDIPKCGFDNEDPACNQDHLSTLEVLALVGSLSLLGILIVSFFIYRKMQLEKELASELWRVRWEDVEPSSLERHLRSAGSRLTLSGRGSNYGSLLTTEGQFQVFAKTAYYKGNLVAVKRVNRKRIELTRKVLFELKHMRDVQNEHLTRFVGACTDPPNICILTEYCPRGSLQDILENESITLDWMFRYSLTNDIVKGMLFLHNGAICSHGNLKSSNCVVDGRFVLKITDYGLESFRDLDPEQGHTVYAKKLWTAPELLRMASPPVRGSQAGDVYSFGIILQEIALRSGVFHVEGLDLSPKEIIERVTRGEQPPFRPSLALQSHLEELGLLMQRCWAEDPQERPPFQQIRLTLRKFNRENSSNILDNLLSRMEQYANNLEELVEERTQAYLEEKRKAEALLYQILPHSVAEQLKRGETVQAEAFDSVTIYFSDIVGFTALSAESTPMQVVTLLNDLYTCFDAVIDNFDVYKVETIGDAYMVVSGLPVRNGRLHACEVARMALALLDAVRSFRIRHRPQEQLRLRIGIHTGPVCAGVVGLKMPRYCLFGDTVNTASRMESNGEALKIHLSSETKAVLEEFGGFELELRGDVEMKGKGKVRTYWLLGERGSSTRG
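Compound pre-incubated 30 min at room temperature on GloSensor-loaded HEK293 cells stably carrying hNpr1 and the pGS-40F cGMP biosensor. Stimulation uses hNppA at 0.1 nM final; luminescence is taken at baseline and 20 min post-agonist.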
Starred values were filed as active, the others as inactive; ? = inconclusive; [ ] = remark or other dose. % is set by controls: 0 for no effect and ±100 for the full control effect; potency is the fitted concentration of half-maximal effect.

| NPR1 antag | Structure |
| --- | --- |
| 0.6% | CC(Cn1cncn1)C(=O)N1CCc2onc(-c3ccc(F)c(F)c3)c2C1 (configuration not stated) |
| -8.2%[70.6 µM] | O=C1c2c(nc(COc3ccc(F)cc3F)n2Cc2ccccc2)NCCN1CC1CC1 |
| 5.4% | COc1ccc(S(=O)(=O)N2C[C@@H]3C[C@H](C2)c2ccc(NC(=O)c4ccc(C#N)cc4)c(=O)n2C3)cc1 |
| -1.7% | CCc1nc(-c2c3n(c(=O)n(Cc4ccc(C(F)(F)F)cc4)c2=O)CCCC3)no1 |
| 5.4% | OCC1(Cc2cccc(Cl)c2)CCCNC1 (configuration not stated) |
| 7.4% | NC(=O)NCC(=O)N1CC[C@@H]2[C@@H](CCC(=O)N2CCc2ccccn2)C1 |
| -19.9%[70.6 µM] | Fc1ccc(-c2cnc3n2C[C@H](CN(Cc2ccccc2)Cc2ccccc2)OC3)cc1 |
| 0.3% | CCCn1c(C)cnc1CC1CCCN(C(=O)CC2CCCC2)C1 (configuration not stated) |
| 1.1% | CCN1CCC(CCNC(=O)C2CCN(C(=O)N3CC4CC(C3)[C@H]3CCCC(=O)N3C4)CC2)CC1 (some centres not stated) |
| 4.6% | Cc1cn(CCn2ccnc2-c2nc[nH]c2C)nn1 |
| -8.2% | COCCNc1ncnc2c1CCN(C(=O)c1cscn1)CC2 |
| -6.5%[70.6 µM] | COc1ccc(-c2noc([C@@H]3C[C@H](NC(=O)c4ccc(F)cc4)CN3C)n2)cc1 |
| -2.9% | COCC1CN(C(=O)Cc2ccc(OC)c(Cl)c2)CC12CCNCC2 (configuration not stated) |
| 4.1% | CCn1cnnc1-c1nn(C)c2c1CN(C(=O)CCCC1C(=O)Nc3ccccc31)CC2 (configuration not stated) |
| 0.8% | N#Cc1ccc(O[C@@H]2COCC[C@H]2NC(=O)Cn2nnnc2N)cc1 |
| ? | COCCN1Cc2nc(OCc3ccc(F)cc3)ccc2OCC1=O |
| 2.0% | O=C(Nc1cccc(-c2nnc3n2CCCC3)c1)c1ccc2ccccc2n1 |
| -14.1% | O=C1C(N2CCN(S(=O)(=O)c3cccs3)CC2)CCN1CCc1ccccc1 (configuration not stated) |
| -22.8% | O=C1c2c(nc(CNCc3cccc(Cl)c3)n2Cc2ccccc2)NCCN1Cc1ccccc1F |
| 0.9% | CN(C)Cc1nnc(C2CC(NC(=O)c3ccc4ncccc4c3)C2)n1C (configuration not stated) |
| -14.2%[70.6 µM] | CC(C)CCNC(=O)c1cnc2n1CCN(Cc1ccccc1Cl)CC2 |
| -11.9% | Cc1ccc(-c2cc3c(=O)n(CCNC(=O)c4ccco4)ccn3n2)c(C)c1 |
| -2.7% | CC(C)C(=O)N1CCCC(c2nn(C)c(=O)n2C(C)C)C1 (configuration not stated) |
| ? | CC1=NS(=O)(=O)N(Cc2ccccc2)C=C1C(=O)OCc1nc(-c2ccc(C)cc2)no1 |
| -3.3% | COc1ccc(CCNC(=O)CN2C(=O)NC(c3ccc(Cl)cc3)C3=C2COC3=O)cc1OC (configuration not stated) |
| -12.7% | O=C([C@@H]1C[C@H](Oc2cccnc2)CN1C(=O)CC1CCCCC1)N1CCCC1 |
| -22.9%[70.6 µM] | Cc1noc(C)c1-c1cc2cc(CO)oc2c(-c2ccc(F)c(Cl)c2)n1 |
| 2.8% | COc1ccccc1NC(=O)CCn1cc(-c2nccn2C)nn1 |
| 0.4%[70.6 µM] | COCC(=O)N1CCN(C(=O)CSCC(=O)O)C[C@H]1C(=O)N[C@H]1CCCNC1=O |
| -0.1% | O=C(NCc1ccc(F)cc1)N1CCCCCC1c1nc(-c2ccncc2)no1 (configuration not stated) |

Two records drawn at random from those above:
| NPR1 antag | Structure |
| --- | --- |
| 0.3% | CCCn1c(C)cnc1CC1CCCN(C(=O)CC2CCCC2)C1 (configuration not stated) |
| -8.2%[70.6 µM] | O=C1c2c(nc(COc3ccc(F)cc3F)n2Cc2ccccc2)NCCN1CC1CC1 |

Carrying on.
| NPR1 antag | Structure |
| --- | --- |
| 9.5% | CNCCN1C(=O)CC[C@H]2CN(C(=O)COc3cccnc3)CC[C@H]21 |
| 1.8% | COc1ccccc1-c1nc2nccc(-c3ccncc3)n2n1 |
| 5.3% | O=c1[nH]nc(CNCC2(O)CCCNC2)c2ccccc12 (configuration not stated) |
| 9.6% | CCN(CC)c1cc(CCC(=O)NCCOC)ccn1 |
| -19.0% | COC(=O)C1=C(C)N=C2SC=C(CC(=O)N3CCCC3)N2C1c1ccccc1Cl (configuration not stated) |
| -2.6% | O=C1N(C2CCN(Cc3ccncc3F)CC2)C(c2ccncc2)C12CCCCC2 (configuration not stated) |
| -1.5%[70.6 µM] | NCCN1C(=O)CO[C@H](c2ccc(NC(=O)C3CCOCC3)cc2)[C@H]1CO |
| 1.7%[70.6 µM] | COc1cc(CN2CCC(C)(NC(C)=O)CC2)cc(NCc2ccccc2)c1 |
| 2.6% | CS(=O)(=O)N1CCCN(C2CCOCC2)CCNC(=O)CC1c1ccccc1 (configuration not stated) |
| 3.6% | Cc1ccsc1C(=O)N1CCc2nnc([C@@H]3C[C@@H](O)CN3C)n2CC1 |
| -4.2% | CCC(=O)N(C1CCOCC1)C1CCN(S(=O)(=O)c2ccc(F)c(Cl)c2)CC1 |
| 1.4% | CNC(=O)[C@@H]1C[C@@H](O)CN1C1CCN(C(=O)c2ccc3ccccc3n2)CC1 |
| 1.5% | Cc1nc(NCc2nc(C)c3c(n2)CCCC3)cc(C2CC(O)C2)n1 (configuration not stated) |
| -1.0%[70.6 µM] | O=C(c1ccn[nH]1)N1CC=C(c2cnc3cnc(-c4ccccc4)cn23)CC1 |
| 1.1% | C[C@H]1[C@@H]2[C@@H](O)C([C@H](C)C(=O)NCc3cccnc3)CC[C@@]2(C)CC[C@@H]1NC(=O)c1ccccc1 (some centres not stated) |
| 4.8% | O=C(CCCn1ccnc1)N1CCC2(CCCN(C3CCCC3)C2=O)C1 (configuration not stated) |
| 3.7% | CCOC(=O)C1CCCN(C(=O)C2COC3(CCCCC3)N2C(=O)c2cc(F)cc(F)c2)C1 (configuration not stated) |
| -30.3%[70.6 µM] | COc1ccc(CN2CCNc3cc(Nc4ccccc4)ncc3C2)cc1 |
| -0.1% | CC#CCn1cc2c3c(cccc31)[C@H](CC(C)C)N[C@H](C(=O)NCc1ccc(OC)cc1)C2 |
| 0.2%[70.6 µM] | COC(=O)[C@@H]1CN(C(=O)Nc2ccccc2)CCN1C(C)=O |
| -0.6% | Nc1nnnn1CC(=O)N1CC[C@@H]2[C@@H](CCC(=O)N2CCc2cnc[nH]2)C1 |
| -15.0% | O=C(NCCc1ccncc1)C1CN(C(=O)COc2ccccc2)CC12CCOCC2 (configuration not stated) |
| 1.6% | CCC(=O)N1CCC2(CC1)OCC(C(=O)NCC(C)C)N2C(=O)c1cccc(OC)c1 (configuration not stated) |
| ? | Cc1cc(CN2CCC(Cc3ccc(F)cc3)CC2)n(C)n1 |
| 1.6% | COC[C@@H]1CN(C(=O)c2ccc(OC)cc2OC)C[C@H]1C(N)=O |
| 4.7% | CO[C@H]1C(=O)N(C2CCN(S(=O)(=O)c3cccc(F)c3)CC2)[C@H]1c1ccncc1 |
| 0.0% | O=C(C1CCCC1)N1CCCC(c2nc(C3CCOCC3)no2)C1 (configuration not stated) |
| -0.8%[70.6 µM] | COCC(=O)NC[C@H]1COCc2nc3cc(C(=O)OC)ccc3n21 |
| 2.4% | Cc1sc2cc(C(=O)NCCN3CCOCC3)[nH]c2c1CN1CCCCC1 |
| -1.0% | COCC1CN(S(=O)(=O)c2cc(Cl)ccc2OC)CC12CCNCC2 (configuration not stated) |

6 entries from above, ordered by the value under NPR1 antag, descending:
| NPR1 antag | Structure |
| --- | --- |
| 4.8% | O=C(CCCn1ccnc1)N1CCC2(CCCN(C3CCCC3)C2=O)C1 (configuration not stated) |
| 2.4% | Cc1sc2cc(C(=O)NCCN3CCOCC3)[nH]c2c1CN1CCCCC1 |
| 1.6% | CCC(=O)N1CCC2(CC1)OCC(C(=O)NCC(C)C)N2C(=O)c1cccc(OC)c1 (configuration not stated) |
| 0.0% | O=C(C1CCCC1)N1CCCC(c2nc(C3CCOCC3)no2)C1 (configuration not stated) |
| -0.6% | Nc1nnnn1CC(=O)N1CC[C@@H]2[C@@H](CCC(=O)N2CCc2cnc[nH]2)C1 |
| -15.0% | O=C(NCCc1ccncc1)C1CN(C(=O)COc2ccccc2)CC12CCOCC2 (configuration not stated) |

More records
| NPR1 antag | Structure |
| --- | --- |
| 5.5%[70.6 µM] | O=C(C[C@@H]1CCNC[C@@H]1Cc1cc(-c2ccccc2)on1)NC1CC1 |
| ? | O=C(c1n[nH]c2c1CCCC2)N1CCC(n2cc(-c3nc(-c4ccccc4)no3)nn2)CC1 |
| -19.3% | COc1ccc(-c2cc(N3CCC(NC(=O)c4ccc(NC(C)=O)cc4)CC3)n[nH]2)cc1 |
| -0.7%[70.6 µM] | COC[C@H]1CCCN1C(=O)C[C@@H]1O[C@H](CNC(=O)NC(C)C)[C@@H](O)[C@H]1O |
| -2.2%[70.6 µM] | CS(=O)(=O)c1ccc(OCC2(CNC(=O)c3ccno3)C[C@@H](O)[C@@H](O)C2)cc1 (some centres not stated) |
| -22.3%[70.6 µM] | COc1cccc(CN2Cc3nc(-c4ccc(F)cc4)ccc3OCC2=O)c1 |
| 4.4% | COc1ccc(CNC(=O)N2c3ccccc3CC2c2nc(C3CC3)no2)cc1 (configuration not stated) |
| 5.6% | Cc1cnc(C(=O)N2CCCN(Cc3ccncc3)C(c3ccccc3)CC(=O)NCC2)cn1 (configuration not stated) |
| -4.2% | CCc1noc(-c2cn(C3CCN(C(=O)c4ccc5c(c4)OCO5)C3)nn2)n1 (configuration not stated) |
| -0.1% | O=C(Cc1ccsc1)N1CCC(c2n[nH]c(=O)n2Cc2ccc(F)cc2)CC1 |
| 2.8% | O=C(NCCn1cccn1)c1coc(COc2cccc(C(F)(F)F)c2)n1 |
| -2.8% | O=C(C1CCOCC1)N1CCC(N2CC3CC(C2)[C@H]2CCCC(=O)N2C3)CC1 (some centres not stated) |
| ? | COc1ccc(CCNC(=O)c2noc(-c3ccccc3F)n2)cc1OC |
| 2.2% | COCc1nncn1C1CCN(S(=O)(=O)c2ccc(C)c(F)c2)CC1 |
| -0.9% | O=C(Cc1ccccc1)NCCC1CCN(C(=O)Nc2ccc(F)cc2F)CC1 |
| 2.0% | O=C(CCC1CCN(S(=O)(=O)c2ccccc2F)CC1)NC1CCS(=O)(=O)C1 (configuration not stated) |
| -20.1% | O=C(CC(c1ccccc1)c1ccccc1F)NCc1cccnc1 (configuration not stated) |
| -13.5% | COc1ccc(S(=O)(=O)N2CCc3nc4cc[nH]n4c(=O)c3C2)cc1Cl |
| 6.9%[70.6 µM] | O=c1cc(N2CCOCC2)oc2c(-c3cccc4[nH]ccc34)nccc12 |
| 0.5% | O=C(NCC1CCCN(C(=O)c2ccccn2)C1)c1ccc(-c2ccccc2)cc1 (configuration not stated) |
| 1.1% | CCC(CC)C(=O)NCc1cccnc1Oc1cccc(C(F)(F)F)c1 |
| -0.7% | COc1ccc(OC)c(CC(=O)N2CCC3(CC2)OCCCC3O)c1 (configuration not stated) |
| 0.7% | COCC(=O)N(C1CCOCC1)C1CCN(S(=O)(=O)c2ccccc2F)CC1 |
| 1.4% | COCc1cc(=O)n(CC(=O)Nc2ccc(C(C)C)cc2)c(N2CCOCC2)n1 |
| 2.7% | Cc1cnc(C(=O)N2CCCN(C(=O)C3CC3)c3ccccc32)cn1 |
| -3.0% | Cc1cc(C)n2nc(C(=O)N3CCC4(CC3)C(=O)Nc3ccccc34)cc2n1 |
| 1.1% | CCCNC(=O)N1CCC(N2C(=O)C(OC)C23CCOCC3)CC1 (configuration not stated) |
| 3.2% | COc1c(C)cccc1C(=O)NCC1CCN(c2cnn(C)c(=O)c2)C1 (configuration not stated) |
| -5.8%[70.6 µM] | COc1ccccc1CN1CCc2nc(C(=O)N3CCOCC3)oc2CC1 |
| 2.3%[70.6 µM] | CC(=O)NC[C@H]1OC[C@@H](NCc2cccs2)[C@@H]1O |
| 0.4% | NC(=O)[C@@H]1C[C@H](Oc2cccnc2)CN1S(=O)(=O)c1cccc(F)c1 |
| -1.4% | COc1cccc(CCC2CCCNC2)c1 (configuration not stated) |
| 4.6%[70.6 µM] | O=C(O)CCn1ncc2cc(OC3CCN(C(=O)COc4ccccc4)CC3)ccc21 |
| -10.4% | CC(C)C[C@@H]1N[C@H](C(=O)NCc2ccccn2)Cc2cn(Cc3ccncc3)c3cccc1c23 |
| 27.0% | O=C(NCCc1ccc(Cl)cc1)C1CN(c2ccccc2)C(=O)N1 (configuration not stated) |
| -3.3% | c1ccc(-c2nc3c(c(NCC4OCCc5ccccc54)n2)CCNC3)nc1 (configuration not stated) |
| 4.7%[70.6 µM] | COCCNC(=O)[C@H]1C[C@@H](O)[C@H](O)[C@@H]2N=C(Nc3cc(OC)cc(OC)c3)S[C@@H]21 |
| -3.5% | COc1cccc(C(=O)N2CCC(N3C[C@H](O)C[C@H]3C(=O)NCc3cccc(F)c3)CC2)c1 |
| -1.6% | CCN1C(=O)C2CC3(CCN(C(=O)c4ccc5ncccc5c4)CC3)CN2C1=O (configuration not stated) |
| -4.0% | Cc1ccccc1NC(=O)COc1ccc(-c2nnc3n2CCCC3)cc1 |
| -2.2%[70.6 µM] | O=C(NCc1ccco1)[C@@H]1Cc2nc[nH]c2CN1Cc1cccs1 |
| 2.0% | CCn1nccc1C(=O)N1CCc2nc3cc(-c4ccccc4Cl)[nH]n3c(=O)c2C1 |
| -9.7% | O=C(NCC1CCOCC1)c1c[nH]c2ccccc12 |
| -8.4% | O=C(Cc1ccccc1)N1CCC[C@H]1c1nc(-c2ccccc2)no1 |
| -1.9% | Cc1cc(CN(C)C(=O)c2cc(COc3cncc(Cl)c3)on2)on1 |
| 3.6% | O=C(CCC[C@@H]1[C@H]2CCCN3CCC[C@@H](CN1C(=O)c1ccccc1)[C@@H]23)NCCCN1CCCCC1 |
| -2.8%[70.6 µM] | CS(=O)(=O)c1ccc(-c2cnc([C@@H]3COCCN3Cc3ccccc3)[nH]2)cc1 |

Source: PubChem BioAssay

A portion of the library (hit frequency here may not be typical).
